TRPML1 inh: qHTS for Inhibitors of the Human Mucolipin Transient Receptor Potential 1 (TRPML1) | Mucolipin-1 (Homo sapiens), Q9GZU1 | activity change, negative = inhibition, % (test concentration not listed) | 390,000 tested, 0.02% active | TRPML1-inducible cells, Ca2+ dye fluorescence, FDSS; stronger effect = lower value; inhibition of EC80 agonist-evoked calcium signal | AID 624415, 2012; in the data active means activity change below about -50%; inconclusive means about -30% to -50%; inactive means above about -30%;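 note: stimulus is agonist 54-4 at its EC80 concentration; % is set by controls: 0 for no effect and ±100 for the full control effect; compound concentration not given in the record; the text of the record puts the active cut at -80%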
Target sequence (Q9GZU1 whole entry, looked up): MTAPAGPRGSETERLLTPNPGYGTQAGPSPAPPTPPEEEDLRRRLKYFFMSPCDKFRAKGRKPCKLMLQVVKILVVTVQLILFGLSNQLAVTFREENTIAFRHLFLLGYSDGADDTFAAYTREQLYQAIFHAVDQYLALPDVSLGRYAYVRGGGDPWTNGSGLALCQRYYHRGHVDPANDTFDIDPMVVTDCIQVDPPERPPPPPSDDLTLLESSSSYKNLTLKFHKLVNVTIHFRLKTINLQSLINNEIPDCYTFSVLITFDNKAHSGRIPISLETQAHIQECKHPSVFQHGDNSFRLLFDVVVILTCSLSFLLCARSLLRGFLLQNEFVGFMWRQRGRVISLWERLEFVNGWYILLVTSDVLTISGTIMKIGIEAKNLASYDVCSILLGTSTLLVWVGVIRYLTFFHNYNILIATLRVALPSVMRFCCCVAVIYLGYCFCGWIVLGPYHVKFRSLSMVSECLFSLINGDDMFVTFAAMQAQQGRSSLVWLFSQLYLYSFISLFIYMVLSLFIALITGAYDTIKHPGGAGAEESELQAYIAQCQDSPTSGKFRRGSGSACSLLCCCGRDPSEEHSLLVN
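Tet-induced TRPML1-DL cells loaded with Ca8 no-wash calcium dye were read kinetically on FDSS. Compound addition was followed by EC80 agonist 54-4 (4 uM final); inhibition was read over 110 s.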
Menin MLL FP FL: qHTS Assay for Inhibitors Targeting the Menin-MLL Interaction in MLL Related Leukemias: Competition With Fluorescein Labeled MLL-derived Peptide | Fluorescence polarization, fluorescein-MLL peptide displacement from menin | FP activity change, % at 61.4 µM | 290,000 tested, under 10 active | AID 1766, 2009; inconclusive = falling polarisation curve, or a change in total fluorescence; inactive = total fluorescence flat and polarisation flat or rising; no compound was filed as active; the % refers to the polarisation; negative = inhibition;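 note: % of control where 0% means no effect; inhibitors lower the polarisation; unlabelled MLL peptide was the positive control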
Sfp PPTase inh: qHTS Assay for Inhibitors of Bacillus subtilis Sfp phosphopantetheinyl transferase (PPTase) | AID 1490, 2009 | 310,000 tested, 3.5% active | Potency, µM, without a hit: max response, negative = inhibition, usual class: inhibitors | Biochemical Sfp PPTase activity, qHTS; active = well fitted inhibition curve with a large enough effect; inconclusive = small, poorly fitted or top-dose-only effect, or another doubt; inactive = no such curve, though single readings can be large or run the other way;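 note: the enzyme is Sfp with the accession as filed and its product quenches rhodamine fluorescence; potency is the fitted concentration of half-maximal effect; 0% = enzyme reaction without inhibitor and -100% = no enzyme wells; top concentration of the series not given in the record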
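After 15 min at room temperature with compound, 15 nM Sfp received 5 uM rhodamine-CoA plus 12.5 uM BHQ-2-ybbR (50 mM Hepes pH 7.6, 10 mM MgCl2). Rate came from the fluorescence difference over 30 min, ex 525/em 598 nm.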
gsp antag: qHTS for Antagonists of gsp, the Etiologic Mutation Responsible for Fibrous Dysplasia/McCune-Albright Syndrome: qHTS. gsp-mutant cells, cAMP HTRF, 30 min; control for the full effect not named in the record. Potency, µM (titrated, usually from 76.9 µM), inactives show at the top dose activity change, negative = inhibition, most hits filed as inhibitors. 340,000 tested, 0.4% active. AID 624288, 2012; active = falling curve of any shape with a large fitted effect; inconclusive = falling curve, mostly with a smaller effect; inactive = flat or rising curve; cell line not stated here;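 note: intracellular cAMP measured with PDE inhibitor Ro 20-1724 present during compound exposure; potency is the fitted concentration of half-maximal effect; % is set by controls: 0 for no effect and ±100 for the full control effect; nearly all actives have a fitted effect of over 65% in size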
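Cells, 2000/well, grown 16–24 h in DMEM 10% FBS with 0.5 mg/ml G418, then compounds plus […] (300 uM addition stock), 30 min at 37C. cAMP read by HTRF (cAMP-d2 and anti-cAMP antibody-K in lysis buffer) after 30 min RT.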
gsp ag: qHTS for Agonist of gsp, the Etiologic Mutation Responsible for Fibrous Dysplasia/McCune-Albright Syndrome: qHTS; AID 624287, 2012; Potency, µM (highest dose often 76.9 µM), inactives show at the highest dose activation (cAMP increase), actives largely listed as activators; gsp mutant cells, cAMP HTRF, 30 min; control for the full effect not named in the record; 340,000 tested, 0.13% active; active = well fitted activation curve with a large enough effect; inconclusive = small, poorly fitted or top-dose-only effect, or another doubt; inactive = no such curve, though single readings can be large or run the other way; cell line not stated here;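 note: phosphodiesterase inhibitor Ro 20-1724 added with compounds to block cAMP breakdown; potency is the fitted concentration of half-maximal effect; nearly all actives have a fitted effect of over 60% in size; about a fifth of the inactives were tested at one dose only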
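Cells in DMEM/10% FBS with G418 were pretreated with compounds in DMSO plus […] (300 uM stock) for 30 min at 37C. cAMP was measured by HTRF (cAMP-d2 plus anti-cAMP antibody-K) after 30 min at room temperature.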
TRPV1 potentiator: HTS Assay for Compounds that Act as Potentiators of the Vanilloid Receptor 1; Transient receptor potential cation channel subfamily V member 1 (Homo sapiens), Q8NER1; 320,000 tested, 0.02% active; TRPV1-expressing cells, Fluo-8 calcium influx, capsaicin EC20 potentiation; host cell line not named in the record; control for the full effect not named in the record; potentiation, % at 8.33 µM; active means potentiation above 80%; inconclusive means 30% to 80%; inactive means below 30%; note: 0% is about no effect
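TRPV1-expressing cells were cultured overnight at 35.5C and loaded with Fluo-8 calcium dye for 40 to 90 min at room temperature. After a 10 s baseline, compound was added and calcium influx was read kinetically for 3 min (ex 480/em 520 nm).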
ClpP mod: qHTS Assay for Activators of ClpP | AID 651965, 2013 | Potency, µM (top dose mostly 57.5 µM), without a hit: at the highest dose activity change, negative = active | 340,000 tested, 1.9% active | ATP-dependent Clp protease proteolytic subunit (Bacillus subtilis (strain 168)), P80244 | purified B. subtilis ClpP, FRET peptide cleavage, 20 min; active = well fitted falling curve with a large enough effect; inconclusive = small, poorly fitted or top-dose-only effect; inactive = no such curve, though single readings can be large or run the other way; note: potency is the fitted concentration of half-maximal effect; the source files actives as falling curves though it sought activators and does not explain the sign; nearly all actives have a fitted effect of over 65% in size; many hits overshoot -100%
Target sequence (P80244 whole entry, looked up): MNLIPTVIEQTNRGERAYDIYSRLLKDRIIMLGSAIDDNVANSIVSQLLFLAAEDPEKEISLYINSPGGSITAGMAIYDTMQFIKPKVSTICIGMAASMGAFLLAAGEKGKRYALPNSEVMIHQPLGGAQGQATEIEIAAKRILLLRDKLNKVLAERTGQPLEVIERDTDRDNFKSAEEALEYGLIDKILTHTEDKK
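FRET quenching reversal measured ClpP activation: 10 microg/mL B. subtilis ClpP at pH 8 with the FRET-FV decapeptide, read at 430 nm after 320 nm excitation. The 20-min minus 0-min signal was scaled between DMSO/no-enzyme wells and ADEP (5.8 microM final).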
* = called active by the depositor; ? = inconclusive; . = not tested or not shown; & = joins results of further samples; [ ] = dose if it differs, or a comment.

SMILES	TRPML1 inh	Menin MLL FP FL	Sfp PPTase inh	gsp antag	gsp ag	TRPV1 potentiator	ClpP mod
CCOc1ccccc1N1CC(C(=O)N2CCc3ccccc3C2)CC1=O (centres undefined)	1.6	1.1	15.5%	-3.8%	4.3%	1.2	-1.3%
Cc1ccc2c(c1)cc(C(=O)N[C@@H](Cc1ccccc1)C(=O)O)n2C	9.3	-5.1	21.3%	-2.3%	-24.9%	5.3	.
COc1cccc(NC(=O)C(=O)NCCCN2CCCC2=O)c1	-9.4	.	.	7.8%	-2.5%[15.4 µM]	16.7	.
CC(=O)c1ccc(O)c(CC=C(C)C)c1	-6.9	2.9	1.2%	2.8%	-15.1%	-0.4	-0.3%
CC(C)(C)c1nnc2sc(SCC(=O)N3CCCc4ccccc43)nn2c1=O	27.8	6.3	2.1%	0.7%	-0.9%	-5.4	-1.4%
Cc1nc2cc(C(=O)OCC(=O)Nc3cccc(Cl)c3)ccc2n1-c1ccccc1	2.7	-2.6	10.8%	-14.3%	-6.0%	1.1	-28.0%
Cc1ccc(C(=O)NN2C(=O)C3C4C=CC([C@@H]3C2=O)C42CC2)cc1 (some centres undefined)	12.1	-2.0	10.2%	0.6%	-31.9%[inhibitor]	1.6	1.4%
O=C(COc1cccnc1[N+](=O)[O-])Nc1c(Cl)cccc1Cl	20.1	.	.	1.3%	-9.0%	.	.
O=C(O)c1c(Cl)cccc1Nc1ccccc1	16.0	.	.	?	-2.9%	.	.
C=CCN1C(=O)C2(OCCCO2)c2cc(CCCC)ccc21	-14.9	0.4	12.4%	0.8%	30.4%[15.4 µM]	9.7	-0.8%
COc1ccc(CC(=O)Nc2ccc(C(=O)NCC(C)C)cc2)cc1	-9.1	1.5	5.7%	3.6%	-55.7%[inhibitor]	-9.4	-0.1%
COc1ccc(-c2cc3nc4c(c(N5CCC6(CC5)OCCO6)n3n2)CCC4)cc1	15.0	1.8	-6.1%	-10.8%	?	-14.7	-12.2%
Cc1nn(C)c(C(=O)N2CCN(C(=O)c3ccco3)CC2)c1[N+](=O)[O-]	18.2	4.3	-7.2%	7.7%	1.0%	18.6	-2.7%
COc1ccc2c(c1)c(=O)cc(-c1ccccc1)n2C	4.2	-1.9	27.9%	3.7%	0.1%	-8.1	-8.6%
Cc1cc(C)c(C#N)c(SCC(=O)c2ccccc2)n1	-14.1	1.3	-9.6%	-28.8%	-33.6%[inhibitor]	-0.6	0.5%
COc1ccccc1C(=O)NC(CCSC)C(=O)NNC(=O)c1ccccc1O (centres undefined)	-4.4	.	.	-9.2%	?	12.8	?
N#CCSc1nnc(-c2ccccc2O)n1CCc1ccccc1	-1.0	-0.6	-4.4%	-1.9%	-1.5%	1.0	0.2%
COc1ccc(NC(=O)NCCCCc2ccccc2)cc1	-9.6	.	12.7%	6.1%	16.4%	-1.3	2.1%
O=C(CSc1nc2ccc(NC(=O)c3ccccc3C(=O)O)cc2s1)Nc1c(Cl)cccc1Cl	-27.0	1.4	-3.7%	-5.3%	2.3%	27.3	.
O=C(O)C1CC(O)CN1C(=S)Nc1ccccc1 (centres undefined)	-9.0	-0.2	-4.8%	7.8%	?	-5.1	-2.6%
CN1C(=O)/C(=C/c2ccc(OCc3ccccc3F)cc2)N(C)C1=S	.	-3.6	3.4%	-13.4%	-5.5%	-8.6	-0.8%
CC1(C)CC(=O)C2=C(C1)OC(c1cccs1)C(C#N)=C2N (centres undefined)	6.9	3.0	3.0%	-1.0%	-6.3%	-25.8	-0.2%
COc1ccc(CN=Nc2cc(C)nc(NS(=O)(=O)c3ccccc3Cl)n2)cc1	.	-5.1	8.7%	.	.	1.9	.
O=C(O)Cc1csc(-c2cccc(Oc3ccccc3)c2)n1	11.3&7.6	3.7&1.2	8.1%&11.3%	-6.1%&-8.9%	0.8%&8.3%[15.4 µM]	1.2&-8.7	.
CCOc1cc(N2CCOCC2)c(OCC)cc1NC(=O)c1nn(CC)c(=O)c2ccccc12	4.9	.	.	4.2%	-17.2%	8.0	2.2%
CC(C)(C)OC(=O)C[C@@H]1C/C=C\C[C@@H](CC(=O)N(CCO)Cc2ccccc2)C(=O)NC[C@@H](c2ccccc2)OC1=O	-2.2	.	.	-7.9%	?	.	?
CCN(CCO)Cc1csc2ccccc12	0.7	0.5	1.0%	16.4%	7.2%[15.4 µM]	-0.5	0.8%
c1ccc(CN2CCN(c3nc(NCc4ccco4)c4ccccc4n3)CC2)cc1	17.8	-18.0	44.7µM*	-4.6%	?	?	-15.4%
CCCn1c(C)cc(/C=C(\C#N)C(=O)OCC(=O)NC(=O)NCC)c1C	27.2	5.6	17.4%	8.5%	-10.5%	1.0	?
C[C@H]1CN([C@@H](C)CO)C(=O)c2cc(Br)cnc2O[C@H]1CN(C)Cc1ccccc1C(=O)O	3.3	.	.	.	25.6%	.	-1.4%
CCC(=O)NC(c1cccs1)c1cc([N+](=O)[O-])c2cccnc2c1O (centres undefined)	-22.4	-0.7	7.08µM*	?	-36.5%[inhibitor]	4.2	-0.6%
CCCCOCCCN1CC(=O)N2C(C)c3[nH]c4ccccc4c3C[C@H]2C1=O (some centres undefined)	-17.3	-0.8	10.1%	-13.1%	-10.0%	4.5	0.4%
Cc1cccc(C(=O)NCCc2csc(C)n2)c1	-15.9	6.6	23.9%	4.4%	9.7%	10.4	1.1%
COc1nc(NCCO)nc(Nc2cc(Cl)ccc2OC)n1	-19.7	-1.3	-1.4%	-0.2%	1.3%[15.4 µM]	23.3	-1.6%
c1ccc2c(c1)C(=NC1CCCCC1)NC2=NC1CCCCC1	24.2	0.6	1.7%	7.2%	-3.4%	-10.5	-28.9%
Cc1ccc2cc(CN(CC3CCCO3)C(=O)NC3CCCCC3)c(=O)[nH]c2c1C (centres undefined)	9.1	0.4	6.7%	-18.8%	-12.7%	0.4	?
CCOC(=O)C1(CCc2ccccc2)CCN(Cc2cnc(N(C)C)s2)CC1	-23.8	0.3	-0.5%	-0.6%	-14.6%	-13.1	.
C[C@@H]1CCCCO[C@@H](CN(C)S(=O)(=O)c2cn(C)cn2)[C@@H](C)CN([C@H](C)CO)C(=O)c2cc(N(C)C)ccc2O1	-17.9	.	.	.	10.1%	.	-2.9%
Clc1ccc(Cl)c2sc(N3CCCC3)nc12	-3.5	3.7	-3.4%	8.7%	?	29.1	1.8%
COc1cccc(N2CCN(C(=O)c3cccnc3)CC2)c1	-10.1	2.1	11.4%	15.8%	?	3.8	-1.7%
CC1CCc2cc(F)ccc2N1C(=O)CN1C(=O)c2ccccc2C1=O (centres undefined)	4.6	-1.4	9.8%	-4.6%	-7.7%	13.2	0.8%
Cc1cc(C)c2c(=O)n(-c3ccccc3)[nH]c2n1	3.4	-0.1	-6.9%	-1.6%	-32.8%[inhibitor]	-7.8	1.6%
O=C(O)c1ccccc1C(=O)O	10.9	.	.	0.6%	.	-1.9	-0.8%
NC(=O)NS(=O)(=O)Oc1ccccc1	-7.9	-4.6	19.6%	10.6%	14.9%	-3.0	0.9%
CCOC(=O)c1cc(-c2csc(Nc3ccccc3Cl)n2)on1	-10.9	1.5	-14.7%	-36.9%	-3.5%[15.4 µM]	.	1.3%
COC(=O)c1ccc2c(c1)NC(=O)C(N1CCCCC1)S2 (centres undefined)	-1.2	1.5	9.1%	-8.8%	-14.6%	-1.5	1.6%
CCOc1ccccc1/C=N/NC(=O)c1cccc(S(=O)(=O)N2CCOCC2)c1	41.2	0.9	-8.1%	-5.4%	?	-21.4	.
COC(=O)c1c(C(=O)OC)c(-c2ccc(F)cc2)n2c1CS(=O)C2 (centres undefined)	-18.9	7.6	27.2%	2.1%	20.4%	25.6	-2.9%
O=C(c1ccccc1)c1ccc2c(c1)OCCOCCOCCO2	?	-0.3	-2.4%	3.6%	13.9%	-7.6	-2.5%
C/C(=N/NC(=O)c1sc(NS(=O)(=O)c2ccc(C)cc2)nc1C)c1sc(N)nc1C	-3.0	6.8	-24.4%	-22.3%	2.6%[15.4 µM]	26.5	.
CCOc1ccc(CN(C)CC(=O)Nc2cccc(S(=O)(=O)N(C)c3ccccc3)c2)cc1	0.9	2.5	-18.5%	-6.6%	-6.7%	-8.4	-1.1%
